Screening results from PubChem BioAssay.
MbtI inh: MbtI salicylate synthase inhibition. purified MbtI enzyme, fluorescence intensity read-out. 0.89% of 100,000 active. AID 493033. inhibition, %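 (about 17 µg/mL by stock and volumes)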;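 active means above 50% in both replicates, above 80% if mildly self-fluorescent; inactive means the rest, strongly fluorescent compounds included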;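 further: 0% = mean of negative and 100% = mean of positive controls; one replicate is shown; some compounds called inactive have numbers as strong as hits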
Polio RdRp inh: inhibitors of poliovirus RNA polymerase binding and polymerization; % elongation, % (compound at 16.7 µg/mL); poliovirus polymerase elongation, fluorescence polarization; active compounds read low; P03300; 0.66% of 150,000 active; AID 588519; in the data active means % elongation below about 90%; further: some results filed as inactive read as strong as hits
Target sequence (P03300 1749-2209 limits assumed): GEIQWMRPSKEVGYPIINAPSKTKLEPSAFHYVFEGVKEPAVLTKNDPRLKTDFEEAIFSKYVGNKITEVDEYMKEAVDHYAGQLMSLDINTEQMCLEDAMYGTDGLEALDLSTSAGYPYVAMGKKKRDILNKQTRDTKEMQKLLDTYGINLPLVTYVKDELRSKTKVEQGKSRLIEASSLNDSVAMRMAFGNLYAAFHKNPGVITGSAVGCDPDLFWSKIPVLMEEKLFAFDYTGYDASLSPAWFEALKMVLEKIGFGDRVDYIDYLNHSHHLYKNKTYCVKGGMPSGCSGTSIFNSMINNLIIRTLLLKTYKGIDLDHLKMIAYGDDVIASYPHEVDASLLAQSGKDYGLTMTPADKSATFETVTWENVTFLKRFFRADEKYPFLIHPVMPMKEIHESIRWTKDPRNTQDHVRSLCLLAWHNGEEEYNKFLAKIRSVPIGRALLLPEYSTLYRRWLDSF
MenB inh: Mtb MenB enzyme inhibition. AID 540299. inhibition, %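 (about 12 µg/mL by stock and volumes)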. 0.43% of 100,000 active. MenB enzyme assay, absorbance read-out; some hits fall short of the stated cut;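 active means mean of two replicates above 30%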;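 further: 0% = no compound and 100% = wells with inactive enzyme; the first replicate is given; strong numbers were not always called active; inactives centre near -10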
Target sequence (P9WNP5 whole entry, looked up): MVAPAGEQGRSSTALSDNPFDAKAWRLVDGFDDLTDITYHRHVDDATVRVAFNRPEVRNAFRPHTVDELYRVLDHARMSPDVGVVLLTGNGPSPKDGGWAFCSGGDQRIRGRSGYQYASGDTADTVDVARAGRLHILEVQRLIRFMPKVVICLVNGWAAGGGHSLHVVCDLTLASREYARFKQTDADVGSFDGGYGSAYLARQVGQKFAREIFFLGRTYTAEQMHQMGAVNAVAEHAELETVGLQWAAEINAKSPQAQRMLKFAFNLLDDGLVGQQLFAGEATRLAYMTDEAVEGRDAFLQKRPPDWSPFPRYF
Polio RdRp inh intensity: second read-out of Polio RdRp inh, no call of its own (marks repeat the call); % elongation; measured here: total intensity read-out; formula for this scale not given here;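 total fluorescence in place of polarization; lower means less elongation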
The depositor's hits bear a star; i = inactive; . = not tested or not shown.

structure	MbtI inh	Polio RdRp inh	Polio RdRp inh intensity	MenB inh
O=c1[nH]nc(-c2ccc(F)cc2)cc1Cc1ccco1	1	99	100	-29
O=C(c1cncc(NS(=O)(=O)c2ccc(Cl)cc2)c1)N1CCN(Cc2ccccc2)CC1	4	100	103	2
N#Cc1c(Nc2ccccc2)s[nH]c1=O	22	115	114	13
Cc1ccc(N2C(=O)c3[nH]nc(-c4ccc(Br)cc4)c3C2c2ccco2)cc1 (stereo unspecified)	-4	104	104	-20
CC(C)(O)C1(C)NCCc2ccccc21 (stereo unspecified)	.	104	109	-19
COC(=O)c1cn(CC(=O)Nc2ccc(S(=O)(=O)NC3=NCCCCC3)cc2)c2ccccc12	24	110	109	-13
COC(=O)C(Cc1ccccc1)NC(=O)Nc1ccccc1OC (stereo unspecified)	-30	99	101	5
CCC(C)(C)n1nnnc1C(c1ccccc1OC)N1CCN(C(=O)c2ccco2)CC1 (stereo unspecified)	-9	101	101	8

(cont.)
structure	MbtI inh	Polio RdRp inh	Polio RdRp inh intensity	MenB inh
Cn1c(C(=O)NC2CCCCCC2)cc2sc(Cl)cc21	-2	98	102	-6
CC1=C(C(=O)Nc2ccc(C(=O)NCCN3CCOCC3)cc2)SCCO1	15	103	104	-29
N#CC1=C(N)C(C#N)(C#N)C(c2ccccc2)C2CCCC=C12 (stereo unspecified)	-147	98	115	-9
CCOC(=O)C1=C(N)N2C(=O)C(C)SC2=C(C(=O)OC)C1c1ccc(C)cc1 (stereo unspecified)	-1	104	101	-39
CCC(C1=C(O)CC(C)(C)CC1=O)C1=C(O)CC(C)(C)CC1=O	3	101	99	-91
COc1cc2c(cc1OC)C(C)N(Cc1sc3ccccc3c1C)CC2 (stereo unspecified)	2	108	108	18
N#Cc1ccc(CONC(=O)C23CC4CC(CC(C4)C2)C3)cc1	9	98	100	6
Cc1ccc2c(c1)c1c(n2CC2COC(C)(C)O2)C(=O)CCC1 (stereo unspecified)	-36	99	102	-1

The listing continues:
structure	MbtI inh	Polio RdRp inh	Polio RdRp inh intensity	MenB inh
Cc1nnc(NC(=O)c2ccc(S(=O)(=O)N3CCCC3)cc2)o1	8	101	105	-20
Cc1cc(C)cc(NC(=O)Nc2cc(-c3ccccc3)nn2C)c1	-4	102	101	2
COC(=O)c1[nH]c2sc3c(c2c1-n1cccc1)CCCC3	6	105	104	-27
Cc1cccn2cc(-c3ccc(Cl)cc3)cc12	.	107	108	-16
COC(=O)c1cc2c(cc1NC(=O)c1ccc3c(=O)n4c(nc3c1)CCCCC4)OCO2	-3	101	101	-6
CC(=O)NCCC(=O)Nc1c(C)cc(C)cc1C	11	95	103	10
Cc1cccn2c(=O)c3cc(C(=O)N(C)C)n(C)c3nc12	105	64	157	-12
Cc1ccc(-c2nn(-c3ccccc3)cc2C(=O)NCCN(C)C)cc1	-8	103	94	.

Following part
structure	MbtI inh	Polio RdRp inh	Polio RdRp inh intensity	MenB inh
COc1cc(-c2cc(=O)c3cc(OCC(=O)O)ccc3o2)cc(OC)c1OC	-4	102	104	-65
CCOC(=O)c1ccc(NC(=S)NN2CCN(C)CC2)cc1	-13	103	108	11
COc1ccc2[nH]cc(CCNC(=O)NC34CC5CC(CC(C5)C3)C4)c2c1	-9	101	107	-13
CCc1ccc(-c2nnn(CC#N)n2)cc1	-2	101	101	-1
Cc1ccc(NC(=O)C2CC=CCC2C(=O)N2CCCCC2)cc1 (stereo unspecified)	-3	102	100	-55
O=C(CSc1cccc[n+]1[O-])N(CCc1ccccc1)Cc1ccccc1	1	102	107	.
Cc1ccc(-c2cc(C(=O)N(C)C3CCCCC3)no2)cc1	.	100	105	-3
CCOC(=O)c1cc(-c2ccnn2C(=O)c2ccc(C)cc2)on1	0	100	103	-18

(continued)
structure	MbtI inh	Polio RdRp inh	Polio RdRp inh intensity	MenB inh
Cc1noc(C)c1COc1ccc(C(=O)OCC(=O)Nc2sc3c(c2C(N)=O)CCC3)cc1	7	.	.	-23
c1ccc(-c2csc(-c3ccc(-c4ccccn4)s3)n2)cc1	14	105	102	-20
Cc1ccc(CNC(=O)C2C3C=CC4(CN(Cc5cccnc5)C(=O)C24)O3)cc1 (stereo unspecified)	-3	99	102	3
CC1CCCCC1NC(=O)CN1N=C(c2ccccc2)CCC1=O (stereo unspecified)	1	106	110	7
O=C(NC1CCCCC1)c1ccc2c(c1)NC(=O)C(CS(=O)(=O)Cc1ccc(F)cc1)N2 (stereo unspecified)	71	102	109	-2
CCc1ccc(Oc2coc3cc(OC(C)C(=O)OCC(C)C)ccc3c2=O)cc1 (stereo unspecified)	-3	102	107	-18
Cc1ccc(NC(=O)COC(=O)C2CCC(=O)N2)c(S(=O)(=O)N2CCOCC2)c1 (stereo unspecified)	-5	109	110	4
CCN1C(=O)OC(C)(CCc2ccccc2)C1(C)O (stereo unspecified)	.	108	111	-3

(next part)
structure	MbtI inh	Polio RdRp inh	Polio RdRp inh intensity	MenB inh
CCCc1c(C#N)c(N)[nH]c(=S)c1C#N	.	112	127	-1
Cc1ccc2c(C)c(C(=O)N(Cc3ccccc3F)C3CCS(=O)(=O)C3)oc2c1 (stereo unspecified)	19	103	103	12
CCCC(NC(=O)c1ccccc1)c1nc2ccccc2[nH]1 (stereo unspecified)	-8	103	108	.
O=C(CN1CCN(c2ccccn2)CC1)NC(=O)NC1CCCCC1	-5	100	91	-28
CN(Cc1ccccc1)C(=O)COC(=O)Cc1ccc(Cl)cc1	-11	102	105	.
Cc1onc(-c2ccccc2)c1C(=O)OCc1cc(=O)n2cc(Br)ccc2n1	-1	99	108	8
CN(C(=O)CCn1c(=O)oc2ccccc21)c1ccccc1	0	102	104	-3
CCN(C(=O)c1noc2c1CCCC2)c1ccccc1	-11	107	102	-25

Carrying on.
structure	MbtI inh	Polio RdRp inh	Polio RdRp inh intensity	MenB inh
CC1(C)CC(=O)C=C(NCC(c2cccs2)N2CCOCC2)C1 (stereo unspecified)	2	107	108	-9
O=C(Oc1ccc2ccc(=O)oc2c1)c1cccs1	-120	100	105	-25
Cc1nc2c(c(C)c1CCC(=O)N1CCCC1)c(=O)n(C)c(=O)n2C	31	101	102	-17
O=C(CCS(=O)(=O)c1cc(Br)cc2c1N(C(=O)C1CC1)CC2)NC1CCCCCC1	-2	102	106	-20
CCCNC(=O)c1c(C)cc(=O)oc1C	4	100	107	-14
CCOc1ccc2c(c1)nc1n2C(=O)C(c2ccccc2)CS1 (stereo unspecified)	-12	100	103	-20
CNCC(O)CN1CCN(c2ccccc2OC)CC1 (stereo unspecified)	.	101	110	-11
Cc1ccc(-c2cc(C(=O)N3CC(C)OC(C)C3)c3ccccc3n2)cc1 (stereo unspecified)	-11	104	105	.

(cont.)
structure	MbtI inh	Polio RdRp inh	Polio RdRp inh intensity	MenB inh
O=c1c(-c2ccccc2)c(O)nc2ccccn12	-6	100	94	-10
C=C(C)c1cccc(C(C)(C)NC(=O)N(C)C2CCN(C)CC2)c1	-10	103	102	-1
COc1ccc(C2c3ccsc3CCN2S(=O)(=O)c2ccc(Cl)cc2)cc1 (stereo unspecified)	-13	106	112	-32
O=C1CC(c2cccs2)CC(O)=C1C=NCCN1CCNCC1 (stereo unspecified)	5	100	97	-21
O=C(Nc1ccc(OC(F)(F)F)cc1)C1=NCCN1	.	108	110	-15
O=C(Nc1ccc(NC(=O)c2ccccc2O)cc1)c1ccc(Cl)cc1	36	99	107	-4
Cc1onc(-c2ccccc2Cl)c1C(=O)NC(C(=O)O)C(C)C (stereo unspecified)	-17	100	103	-9
CCc1ccccc1Oc1coc2cc(OC(=O)c3ccccc3F)ccc2c1=O	9	100	103	-31

(list continues)
structure	MbtI inh	Polio RdRp inh	Polio RdRp inh intensity	MenB inh
COc1ccc2c(c1)-c1nc(N)sc1CC2	.	102	110	15
CC1CCN(C(=O)CN(c2ccc(Cl)c(C(F)(F)F)c2)S(=O)(=O)c2ccccc2)CC1	4	105	105	-17
COc1cc(C2CC(C(F)(F)F)n3ncc(C(=O)NC(C)(C)C)c3N2)cc(OC)c1OC (stereo unspecified)	2	103	102	15
O=C1NC(=S)N(Cc2ccco2)C(=O)/C1=C\c1cn(CC(=O)N2CCOCC2)c2ccccc12	37	91	108	-20
CCCCOc1ccc(CC(=O)O)cc1	39	102	99	-27
COc1ccc(-c2c(C)nn3c(NCCC4=CCCCC4)cc(C)nc23)cc1OC	0	104	95	-34
CCc1ccc(CN2C(=O)c3ccccc3C2C(=O)NCCc2ccccc2)cc1 (stereo unspecified)	-6	103	102	-3
CC(=O)NCc1cc2c(cc1Br)OCO2	-14	103	101	-9

(cont.)
structure	MbtI inh	Polio RdRp inh	Polio RdRp inh intensity	MenB inh
Fc1ccccc1OCCSc1nnc2c(n1)[nH]c1ccccc12	3	102	106	-10
O=C(C1CCCCC1)N1N=C2/C(=C/c3cccs3)CCCC2C1c1cccs1 (stereo unspecified)	33	100	104	0
COc1ccccc1Cn1cccc1C1=NC(CC(C)C)CO1 (stereo unspecified)	-6	99	101	-10
CCS(=O)(=O)c1nnnn1-c1ccccc1	29	103	99	42*
COC(=O)c1ccc(CNC(=O)c2oc3ccc(OC)cc3c2C)cc1	1	101	105	-26
Cc1cc(C)cc(CC(C)CC(=O)Nc2ccccc2I)c1 (stereo unspecified)	-9	100	99	-25
CN(C)CCCn1c(N)c(-c2nc3ccccc3[nH]2)c2nc(C#N)c(C#N)nc21	.	101	101	-8
CC12CC(c3ccccc3O1)N(C(=O)c1cccc(F)c1)C(=S)N2c1ccccc1 (stereo unspecified)	-8	103	106	-40

Copied from the list.
In MbtI inh, CC12CC(c3ccccc3O1)N(C(=O)c1cccc(F)c1)C(=S)N2c1ccccc1 (stereo unspecified) is entered as -8
In Polio RdRp inh, COC(=O)c1ccc(CNC(=O)c2oc3ccc(OC)cc3c2C)cc1 is entered as 101
In Polio RdRp inh, Cc1cc(C)cc(CC(C)CC(=O)Nc2ccccc2I)c1 (stereo unspecified) is entered as 100
In MbtI inh, COc1ccccc1Cn1cccc1C1=NC(CC(C)C)CO1 (stereo unspecified) is entered as -6
In MenB inh, Fc1ccccc1OCCSc1nnc2c(n1)[nH]c1ccccc12 is entered as -10

Next part.
structure	MbtI inh	Polio RdRp inh	Polio RdRp inh intensity	MenB inh
O=C(NC1CCc2ccccc21)c1n[nH]c(=O)c2ccccc12 (stereo unspecified)	-27	102	101	-2
NS(=O)(=O)c1ccc(NC(=O)OCC(F)(F)F)cc1	4	99	100	13
Cc1c(C(=O)N2CCC3(CC2)OCCO3)sc2nc3n(c(=O)c12)CCCC3	18	103	107	-11
COc1ccc(OC)c(C2CC(=O)N(c3ccccc3)C3=C2C(=O)OC3)c1 (stereo unspecified)	1	103	101	-35
CN1CCN(CC2CC=CCC2)CC1 (stereo unspecified)	.	106	103	3
CCN(Cc1nc2ccccc2c(=O)[nH]1)Cc1nc2ccc(Cl)cc2n1CCO	-8	.	.	-13
O=c1cccc2n1CC1CC2CN(c2nc(Cl)nc(Cl)n2)C1 (stereo unspecified)	-8	100	102	19
COc1ccc(S(=O)(=O)Nc2cc3oc4ccccc4c3cc2OC)cc1	8	101	108	-25

(list continues)
structure	MbtI inh	Polio RdRp inh	Polio RdRp inh intensity	MenB inh
N#Cc1c(Nc2ccccc2)sc2c(O)cc(=O)[nH]c12	20	104	104	-377
CC1CCN(C(=O)c2cc3c(s2)-c2ccc(Cl)cc2SC3)CC1	4	102	98	4
COC(=O)NCN1C(=O)C2C3C=CC(C3)C2C1=O (stereo unspecified)	-192	103	103	-17
Cc1ccc(C2=C/C(=C3\OC(=O)c4ccccc43)C(=O)O2)cc1	.	109	114	-15
NC(=O)Cc1nnc(-c2ccccc2)c(-c2ccccc2)n1	-4	100	105	-23
O=S(=O)(c1ccc(OC(F)(F)F)cc1)N1CCN(Cc2nnc(-c3ccco3)o2)CC1	-9	105	109	3
Cc1noc2ncnc(N3CCCC(C(=O)N4CCN(c5ccccc5F)CC4)C3)c12 (stereo unspecified)	-7	99	103	11
O=C(NC1CC2CCCC(C1)N2Cc1ccccc1)C1CC1 (stereo unspecified)	-4	101	102	-2

Next section:
structure	MbtI inh	Polio RdRp inh	Polio RdRp inh intensity	MenB inh
O=C(NCc1ccccc1)c1cc(C2CC2)[nH]n1	-17	105	100	-15
CC(=O)NC1C2CN3CCN(C2)CC1(Cc1ccccc1)C3 (stereo unspecified)	-22	101	103	-1
CCc1ccc(N2C(=O)CC(Sc3ccccn3)C2=O)cc1 (stereo unspecified)	69*	103	104	-31
NC(=O)c1ccsc1NC(=O)COc1ccccc1	-24	96	109	-26
N#C/C(=C/c1cc(Br)c(Br)o1)c1ccccc1	.	107	114	-13
CCOC(=O)c1cc2c(ccc3ccccc32)o1	46	103	104	-28
N#CC(C#N)=Cc1ccc(OC(=O)c2cccs2)cc1	-2	120	139	1
CCn1c2ccccc2c2nnc(SCC(=O)c3cc(C)n(-c4ccc5c(c4)OCCO5)c3C)nc21	-6	99	97	-31

Continued.
structure	MbtI inh	Polio RdRp inh	Polio RdRp inh intensity	MenB inh
CCN(CC)c1nc(N)nc(Nc2ccc3cc(-c4ccccc4)c(=O)oc3c2)n1	i	101	102	-155
C=C[C@H]1CN2CC[C@H]1C[C@@H]2[C@@H](OC(=O)OCC)c1ccnc2ccc(OC)cc12	-14	100	100	-8
CCO/C=N/c1c(C#N)c2c(c(=S)n1C)COC(C)(C)C2	-2	100	107	1
O=C(c1nc(-c2ccc(Cl)cc2)n2c1CCCCC2)N1CCc2ccccc21	-16	105	108	-11

Quoted from the entries so far for reference:
structure	MbtI inh	Polio RdRp inh	Polio RdRp inh intensity	MenB inh
CCn1c2ccccc2c2nnc(SCC(=O)c3cc(C)n(-c4ccc5c(c4)OCCO5)c3C)nc21	-6	99	97	-31
CCN(CC)c1nc(N)nc(Nc2ccc3cc(-c4ccccc4)c(=O)oc3c2)n1	i	101	102	-155

Rows were taken by chance; 2% or so of the library scored in one or more.
